UUG fidelity: modulators of yeast start codon fidelity, primary screen, whole organism, S. cerevisiae, single point, plate reader | S. cerevisiae UUG-firefly luciferase reporter, luminescence/redox ratio | activity score, % at 18.7 µM | 350,000 compounds, 0.13% hits | AID 602363, 2012;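 active means replicate mean at a twofold rise or more, about +100% in these data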;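 further: firefly luciferase made from a UUG start codon reports start codon fidelity; reporter light over untreated wells divided by growth signal over untreated wells; some hits fall short of that in this replicate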
eIF4H FP inh: human eIF4H binding inhibitors, primary screen, translation initiation inhibitor project, biochemical, uHTS, fluorescence polarization; Eukaryotic translation initiation factor 4H (Homo sapiens), Q15056; eIF4H fluorescence polarization binding assay; inhibition, % at 35 µM; 290,000 compounds, 0.94% hits;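 active means 50% or more with normal probe brightness, or confirmed in later tests; inconclusive means above 50% with abnormal brightness, or retests that disagree; inactive means below 50% or failed in later tests; about a fifth of its hits are not listed in these tables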;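 further: calls also rest on retests at 20 µM and on dose response follow-up; 0% = protein and probe with vehicle and 100% = probe without protein; strong numbers were not always called active; many hits fall short of the cut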
CSC inhib: cancer stem cell viability inhibitors, primary screen, luminescence. inhibition, % at 7.5 µM. cancer stem cell-like cells viability. 300,000 compounds, 1.1% hits;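 active means mean at 75% or more and at least half the replicates too; inconclusive means mean and replicates disagree; tested in HMLE shEcad cells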;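 further: 0% = median of negative and 100% = median of positive control wells; the first replicate is given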
Rce1 inh: yeast Rce1p protease inhibitors, primary screen, biochemical, fluorescence, cell-free homogeneous. CAAX prenyl protease 2 (Saccharomyces cerevisiae (strain ATCC 204508 / S288c)), Q03530. yeast membranes, quenched prenylated peptide cleavage fluorescence. calls only. 290,000 compounds, 0.27% hits. AID 2563, 2010;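 active means fall in fluorescence gain of 50% or more versus controls, with final raw signal at or below 3038400; inconclusive means same 50% fall but final raw signal above 3038400; inactive means fall in fluorescence gain under 50%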;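 further: plate controls were neutral control wells for no effect and wells lacking membranes for full effect; tested at 10 µM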
PABP polyA inh: PABP poly(A) RNA binding inhibitors, primary screen, biochemical, fluorescence polarization, uHTS | Polyadenylate-binding protein 1 (Homo sapiens), P11940 | inhibition, % at 35 µM | 290,000 compounds, 1% hits;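 active means 50% or more with normal probe brightness, or confirmed in later tests; inconclusive means above 50% with abnormal brightness, or retests that disagree; inactive means below 50% or failed in later tests; about a fifth of its hits are not listed in these tables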;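 further: calls also rest on retests at 20 µM and on dose response follow-up; controls were probe without protein and protein plus probe with vehicle; some compounds called inactive have numbers as strong as hits; many hits fall short of the cut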
Target sequence (P11940 whole entry, looked up): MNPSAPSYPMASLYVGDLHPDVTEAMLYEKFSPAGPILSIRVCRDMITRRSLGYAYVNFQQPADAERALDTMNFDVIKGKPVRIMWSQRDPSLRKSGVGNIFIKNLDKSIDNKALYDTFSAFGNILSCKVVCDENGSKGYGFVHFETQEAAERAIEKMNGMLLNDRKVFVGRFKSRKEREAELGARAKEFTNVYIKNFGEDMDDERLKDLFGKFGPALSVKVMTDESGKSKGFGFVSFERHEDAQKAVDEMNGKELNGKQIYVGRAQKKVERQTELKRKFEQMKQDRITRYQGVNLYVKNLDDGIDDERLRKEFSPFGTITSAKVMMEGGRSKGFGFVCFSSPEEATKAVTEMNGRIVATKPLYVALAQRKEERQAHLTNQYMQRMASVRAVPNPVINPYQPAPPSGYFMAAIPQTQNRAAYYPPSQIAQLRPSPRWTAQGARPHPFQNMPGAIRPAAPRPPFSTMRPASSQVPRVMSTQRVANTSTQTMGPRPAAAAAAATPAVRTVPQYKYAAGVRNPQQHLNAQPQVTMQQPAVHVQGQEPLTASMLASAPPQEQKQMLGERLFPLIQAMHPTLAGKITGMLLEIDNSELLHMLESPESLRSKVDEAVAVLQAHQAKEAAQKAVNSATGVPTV
MT1-MMP act inh: blockers of MT1-MMP proenzyme processing, primary screen, HT1080 RFP-PRO-GFP cells, GFP/RFP fluorescence; GFP/RFP ratio fluorescence, overnight; percent of plate control window, DMSO zero; 360,000 compounds, 0.061% hits; GFP/RFP ratio change, % at 20 µM;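 active means GFP/RFP ratio change of at least 30% with cell ATP level not reduced by more than half and red fluorescence within 50% of control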; further: strong numbers were not always called active
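Assay system: HT1080 RFP-PRO-GFP cells | Dosing: 20 µM single dose, 1% DMSO | Incubation: Cells overnight before dosing, compound overnight, 37 °C, 5% CO2 | Evaluation: GFP/RFP fluorescence ratio | Control set: DMSO-only wells and HT1080 RFP-L50D-GFP cell wells as references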
Env fusion inh: inhibitors of HIV-1 Env-driven cell-cell fusion, primary screen, HeLa-JRFL effector, CEM21 target cells, luciferase. inhibition, % at 12.3 µM. 360,000 compounds, 1.1% hits. AID 651610, 2012;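 active means mean replicate inhibition score of at least 50 and every replicate individually at or above 50; inconclusive means only one of the two criteria met; inactive means mean below 50 and not all replicates reaching 50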;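 further: 0% = plate neutral controls and 100% = maraviroc near 300 nM; one replicate is shown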
MT1-MMP act inh RFP: further read-out of MT1-MMP act inh, marked with its call; RFP signal change, %; measured here: RFP expression control read;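 0 = vehicle wells; hits needed this value within 50% of zero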
The depositor's hits bear a star; i = inactive; ? = inconclusive; . = not tested or not shown; [ ] = remark or other dose. Some of the compounds tested; the hit share may differ from the screen's.

SMILES	UUG fidelity	eIF4H FP inh	CSC inhib	Rce1 inh	PABP polyA inh	MT1-MMP act inh	MT1-MMP act inh RFP	Env fusion inh
CCCCCC(=O)N1CC2(CC(c3cccc(NC(=O)[C@@H]4CCC(=O)N4)c3)=NO2)C[C@@H]1C(N)=O (stereo not given in full)	-7	5	-10	i	9	1	0	-31
O=C(NCCCn1ccnc1)c1ccc(Br)o1	-9	5	.	i	0	2	2	-14
Clc1ccc(OCCOCCNCc2ccccc2)cc1Cl	12	12	.	i	2	1	-1	55*
CCOC(=O)CS(=O)(=O)c1ccccc1	-18	2	-6	i	-1	0	4	-26
Cc1ccc(NC(=O)CN(C)C(=O)c2nn(C)c(=O)c3ccccc23)cc1	.	-12	-11	i	7	3	-4	2
Cc1cc2nncn2c(Cc2ccccc2)n1	-12	-4	3	i	3	1	7	.
CCOC(=O)C1CCN(Cc2ccc(OC)c(C)c2OC)CC1	-10	-9	4	i	2	-8	2	?
O=C(CSc1nc2ccccc2s1)CSc1nc2ccccc2s1	-2	18	-1	i	26	-11	3	.
COc1ccc(Cl)cc1NC(=O)Cn1nnc(C(=O)NCCc2ccc(OC)c(OC)c2)c1N	-10	-11	-7	i	-3	0	0	0
Cc1cccc(N(C)S(=O)(=O)c2nnc(NC(=O)c3ccco3)s2)c1	-9	-5	-3	i	7	-2	2	13
COc1cc(OC)cc(C(=O)N2CCN(c3ccc(N4CCOCC4)nn3)CC2)c1	-8	.	-5	i	.	2	8	2
Cc1cc(C)c(C(=O)C2OC(=O)C(C)(C)C(=O)C2(C)C)c(C)c1 (stereo not given)	7	1	-17	i	-5	-2	-2	.
Cc1ccc(NC(=O)c2cccc(N3C(=O)C4C5C=CC(C5)C4C3=O)c2)cc1C (stereo not given)	-8	0	14	i	3	1	-11	4
CC(=O)C1=C(c2ccccc2)NC(=O)NC1c1ccc(O)c(O)c1 (stereo not given)	.	0	-11	i	0	0	3	3
Cc1ccc(NS(=O)(=O)c2ccc(-c3cnc(C4CC4)o3)cc2)cc1	-4	1	65	i	1	-2	-10	-63
CN1CCN(C(=O)c2ccccc2NC(=O)c2cccc(Cl)c2)CC1	-4	-5	4	i	11	1	-1	.
COc1ccc(N(C(=O)CNC(=O)c2ccco2)C(C(=O)NC2CCCC2)c2ccncc2)cc1 (stereo not given)	.	-7	9	i	-4	2	5	-11
COC(=O)c1cc(-c2ccc(OC)c(OC)c2)on1	-19	2	12	i	5	2	3	-88
COc1ccc(NC(=O)/C(=C/c2cccs2)NC(=O)c2ccco2)cc1	-12	-5	-16	i	-6	-2	5	-12
CCCSc1nc(C)cc(C)c1S(=O)(=O)c1ccccc1C	-8	-4	4	i	0	-6	-7	.
CC1Cc2nc(SCC(=O)Nc3ccc4c(c3)OCO4)n(Cc3ccccc3)c(=O)c2S1 (stereo not given)	-7	-10	0	i	2	1	-2	.
COCC(C)NC(=O)CSc1nnc(-c2cccc(S(=O)(=O)N3CCCCC3)c2)o1 (stereo not given)	.	-6	.	i	-15	-7	-4	-5
COc1cccc(-c2nnc(-c3ccc(C)o3)o2)c1	-44	31	-6	.	-19	-5	2	-433
Cc1nc(SCC(=O)c2cc(C)n(C3CC3)c2C)c2ccccc2n1	1	.	.	.	.	-5	-25	15
CCc1nc2c(OCCC3CCCCC3)cccn2c1N(C)C(=O)c1ccc(OC)cc1	-17	.	.	.	.	-4	-11	6
COC(=O)c1cccc(-n2c(=O)n(Cc3ccccc3)c(=O)c3[nH]cnc32)c1C	-16	8	-23	i	3	0	0	8
CN(C)S(=O)(=O)c1ccc(C(=O)OCC(=O)Nc2ccc(OC(F)F)cc2)cc1	-2	-8	5	i	-9	3	3	-7
O=C(CSCc1ccccc1)Nc1ccccc1C(=O)Nc1ccc(C(=O)O)cc1	-22	8	-3	i	-2	1	2	14
CN1CCN(S(=O)(=O)c2cccc(C(=O)NCc3ccc(Cl)cc3)c2)CC1	-5	0	-9	i	-2	2	0	2
CCCCc1c(O)nc(SCC(=O)Nc2ccc(C)cc2)n(-c2ccc(OC)cc2)c1=O	-19	.	-8	i	.	1	-1	-17
COc1ccc(N(CC(=O)NCc2ccccc2)S(=O)(=O)c2c(C)nn(C)c2C)cc1	-2	8	-20	i	-18	3	1	2
Cc1ccc(-c2noc(-c3ccccc3C(=O)NCC3CCCO3)n2)cc1 (stereo not given)	1	5	-18	i	-9	3	3	.
COc1cc(/C=N/NC(=O)CCC(=O)NC2CCCCC2)ccc1C	.	-8	-12	i	-2	2	5	29
COc1cccc(/C=N/NC(=O)CNC(=O)C(c2ccccc2)c2ccccc2)c1O	-13	-4	.	i	-8	0	-9	-2
CC(C)(C)OC(=O)N[C@@H](Cc1ccccc1)c1nnc(S(=O)(=O)Cc2ccccc2)o1	.	-6	131*	.	3	.	.	47
CCOc1ccsc1C(=O)OC	.	-10	0	i	-7	2	4	1
COc1cc(OC)cc(-c2c(-c3cccs3)c3cc(-c4ccc(C(N)=O)cc4)ccc3n2C)c1	-16	.	.	.	.	-6	-5	4
COc1cc(NC(=O)CCS(=O)(=O)c2ccc3c(c2)oc(=O)n3C)cc(OC)c1	.	1	1	i	-2	0	3	2
CCC(=O)N[C@@H]1C=C[C@@H](CC(=O)NCc2ccccc2F)O[C@@H]1CO	-6	.	.	.	.	-2	-2	-2[16.7 µM]
COc1ccc(C2CC(c3ccc(F)cc3)n3nc(NS(C)(=O)=O)nc3N2)cc1 (stereo not given)	.	10	-13	i	12	-2	7	23
CCOC(=O)C1=NN(C(=O)c2ccc(C)cc2)C(O)(c2ccc(Cl)cc2)C1 (stereo not given)	-17	29	-2	i	43	-44	14	-17
CC(C)(C)c1nn(-c2ccccc2)c2[nH]c(=O)c(CNc3ccc4c(c3)OCCO4)cc12	-25	12	54	i	7	0	-4	.
CCOC(=O)N1CCN(S(=O)(=O)N2CCCC(C(=O)NCCc3ccc(OCC)c(OCC)c3)C2)CC1 (stereo not given)	.	-6	8	i	-3	-3	0	-6
Cn1nc(C(F)(F)F)c(-c2ccc(Br)cc2)c1NC(=O)c1ccco1	-11	-3	16	i	5	5	3	-15
COc1ccc(C(=O)/C=C/Nc2ccccn2)cc1	-82	-8	.	.	-2	2	-1	.
COC(=O)CCCn1nc(NC(=O)COc2ccc(F)cc2)cc1C	-19	0	-6	.	5	2	0	-5
COc1cc(/C=N/N2C(C)CCCC2C)cc(Br)c1O (stereo not given)	2	0	-11	i	-1	-2	1	10
COc1ccc(N2C(=O)CCC(C(=O)NCc3ccccn3)C2c2ccc(OC)c(OC)c2)cc1 (stereo not given)	6	-6	-8	i	-2	4	2	-27
Cc1ccc(CSCC(=O)Nc2ccccc2)cc1	-1	0	-11	i	-2	1	-1	-8
NNC(=O)c1cccc(COc2ccccc2Br)c1	-15	-2	8	i	2	1	-1	-460
Cc1ccc(NC(=O)Cc2ccc([N+](=O)[O-])cc2)c(Br)c1	-20	-3	1	i	-10	8	5	7
CSc1nn(-c2ccc(C(=O)OC(C(=O)NC(N)=O)C(C)C)cc2)c(=S)s1 (stereo not given)	.	8	2	i	7	-3	-6	1
CCN1CCN(CCCN(Cc2ccco2)C(=S)Nc2cccc(Cl)c2C)CC1	.	4	19	i	22	2	-1	-7
COc1ccc(S(=O)(=O)N2CCCCC2c2cc(C(=O)NCc3ccc(F)cc3)no2)cc1 (stereo not given)	-9	.	.	.	.	-4	-4	45
CCN(Cc1ccccc1)C(=O)/C=C/c1ccccc1[N+](=O)[O-]	.	-6	.	.	7	-5	-1	-13
Cc1ccc(NC(=O)N2CCN(c3ccccn3)CC2)cc1	-17	-5	-10	i	-9	5	3	.
CC(=O)OCCn1c2nc(=O)[nH]c(=O)c-2nc2cc(C)c(C)cc21	-55	?	-5	i	?	-132	3	3
Cc1c(C)c2c(OCC(=O)NCc3ccccn3)cc3c(c2oc1=O)CCC(C)(C)O3	-18	-10	6	i	4	5	-6	.
COc1ccccc1CCC(=O)Nc1ccc2c(c1)CN(CCCn1cccn1)CC2	-29	.	-5	i	.	1	1	-8
COc1ccc(OC)c(-c2nc3cc4ccccc4cc3nc2-c2ccccc2)c1	.	-4	8	i	8	-3	0	3
Other compounds.
SMILES	UUG fidelity	eIF4H FP inh	CSC inhib	Rce1 inh	PABP polyA inh	MT1-MMP act inh	MT1-MMP act inh RFP	Env fusion inh
Cc1ccc(-n2c(SCC(=O)N/N=C/C=C/c3ccccc3[N+](=O)[O-])nc3ccccc3c2=O)cc1	.	-7	71	i	-6	-2	-2	-22
CCN(CCNC(=O)Nc1ccc(Cl)cc1)c1ccccc1	.	-2	4	i	-4	-2	-8	.
O=C(OCn1nnc2ccccc2c1=O)c1cc(-c2ccccc2)nc2ccccc12	.	-2	2	i	3	6	2	.
CCOc1ccc(S(=O)(=O)N(C)c2ccc(OCC(=O)Nc3ccc4[nH]c(=O)[nH]c4c3)cc2)cc1	19	-1	-11	i	5	10	3	.
Cn1nc(C(=O)N2CCN(C(c3ccccc3)c3ccccc3)CC2)c2ccccc2c1=O	-21	2	-9	i	-1	-7	-8	-72
CC(NC(=O)COC(=O)Cn1cnc2ccccc2c1=O)C1CC2CCC1C2 (stereo not given)	.	-2	4	i	20	7	6	-57
O=C(Cn1cnc2ccccc2c1=O)Nc1ccc(-c2nnc3n2CCCCC3)cc1	-38	-2	-5	i	4	-3	-1	-33
CCc1cccc(NC(=O)CSC2=NS(=O)(=O)c3ccccc32)c1	-1	2	4	i	8	-2	3	13
COc1ccc2c(c1)N1CCN=C1N2C	-7	-3	14	i	4	2	12	.
Cc1cc(NC(=O)CO/N=C/c2ccc3c(c2)OCO3)ccc1Br	.	-6	-2	i	-15	-2	4	-7
Cc1ccc(Cc2c(-c3cccc(Br)c3)nc3ccc(Cl)cn23)cc1	-3	.	.	.	.	1	2	25
C=CCOC(=O)/C(=C\c1cccc2ccccc12)NC(=O)c1ccccc1	-7	-1	-9	i	-3	-2	-1	.
CCCC(c1nnnn1Cc1ccc(F)cc1)N1CCN(C)CC1 (stereo not given)	-3	1	-12	i	3	-2	0	-40
Cc1nn2c(-c3ccncc3)nnc2c2ccccc12	59	-6	-7	i	1	-6	-3	.
O=C(O)CCCNC(=O)OCc1ccccc1	-11	-5	6	i	0	-3	0	-22
Cc1ccc(C(=O)Oc2cc(N)n(S(=O)(=O)c3ccc(F)cc3)n2)cc1	-14	4	1	i	5	3	2	-3
CCN1C(=O)[C@@H]2[C@@H](c3ccc(-c4cc(C(C)=O)cs4)cc3)N3CCC[C@@]3(C(=O)OC)[C@@H]2C1=O	-11	.	.	.	.	-1	2	-4

Fetched by structure from the entries so far, two records:
SMILES	UUG fidelity	eIF4H FP inh	CSC inhib	Rce1 inh	PABP polyA inh	MT1-MMP act inh	MT1-MMP act inh RFP	Env fusion inh
Cc1ccc(-n2c(SCC(=O)N/N=C/C=C/c3ccccc3[N+](=O)[O-])nc3ccccc3c2=O)cc1	.	-7	71	i	-6	-2	-2	-22
O=C(Cn1cnc2ccccc2c1=O)Nc1ccc(-c2nnc3n2CCCCC3)cc1	-38	-2	-5	i	4	-3	-1	-33

Screening data deposited in PubChem BioAssay by several laboratories.
